Calb biofilm kill – mixture kills Candida albicans biofilm cells; inhibition, % at 7.6 µM; 0.02% of 120,000 active; AID 1242; C. albicans biofilm persisters + clotrimazole, fluorescence viability; primary screen in compound mixtures of four per well;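 active = inhibition above 30.3% in the primary screen of four-compound pools, then above 30% when the compound was retested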;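 note: compounds exposed to preformed 24 h biofilms for 48 h; the number belongs to the whole pool; some results filed as inactive read as strong as hits; inactives centre near 12; 0% = biofilm with clotrimazole alone and 100% = kill control; retested singly at about 60 µM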
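System: C. albicans CAF4-2 wild-type biofilms; Medium: RPMI/MOPS medium, pH 7.0; Reagent: Clotrimazole, 50 µg/mL; Times: biofilm formation 24 h, compound exposure 48 h, 37 °C; Detection: 2-h Alamar Blue fluorescence, 535/590 nm excitation/emission; Evaluation: percent inhibition of biofilm viability.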
Numbers without * were called inactive. The list is partial. The share of hits here may be higher or lower than overall.

SMILES | Calb biofilm kill
CN1C(=O)c2ccccc2C(C(=O)O)C1c1cccc([N+](=O)[O-])c1 (centres undefined) | 10.5
O=C(O)/C=C/C(=O)NCCc1ccccc1 | 14.7
COc1cccc(/C=N/NC(=O)CCCC(=O)NC2CCCCC2)c1 | 16.4
O=C(Nc1ccc(S(=O)(=O)Nc2ncccn2)cc1)c1cccnc1 | 8.8
O=C(NC(Cc1ccccc1)C(=O)O)/C(=C/c1ccco1)NC(=O)c1cccc(Br)c1 (centres undefined) | 16.3
N#C/C(C(=O)NCCc1ccccc1)=C1/N=C(NC(=O)c2cccs2)c2ccccc21 | 19.0
CCCOC(=O)Nc1nc(-c2ccc(C)cc2)c(C)s1 | 13.8
COc1ccc(NC(=O)c2ccc(Cn3cc(Cl)cn3)cc2)cc1 | 14.2
O=C(Nc1ncc(S(=O)(=O)c2ccc([N+](=O)[O-])cc2)s1)c1ccccc1F | 21.4
C=C1CCN([C@H](C(=O)NCc2ccc(OC)cc2)C(C)C)S(=O)(=O)c2ccccc21 | 3.2
Cc1ccc(C(=O)Nc2ccc(C(=O)N3CCCCC3C)cc2)cc1 (centres undefined) | 9.0
OCC1CCCN(C2CCN(Cc3nc(Cc4cccc(C(F)(F)F)c4)no3)CC2)C1 (centres undefined) | 3.7
CCNC(=S)NNc1nc(N2CCCCC2)nc(N2CCOCC2)n1 | 14.3
CC(NC(=O)Nc1ccccc1F)C(C)(C)C (centres undefined) | 15.4
NNC(=O)CNc1cccc(Br)c1 | 18.6
O=C(CSc1ccc([N+](=O)[O-])cc1)Nc1cccc(S(=O)(=O)Nc2ccccc2F)c1 | 9.7
COc1ccccc1NC(=S)N1CCN(C(=O)C2CCCO2)CC1 (centres undefined) | 24.0
COc1ccc(C2=NN(CCC(=O)NCc3ccc4c(c3)OCO4)C(=O)CC2)cc1 | 19.1
Cc1cccc(Cc2nnc(CCC(=O)N(C)C3CCOC3)o2)c1 (centres undefined) | 7.4
COc1ccc(Cc2c(O)nc(SCC(=O)c3ccc(OC)cc3)[nH]c2=O)cc1 | 13.1

Rewritten as labelled records: 4 of the compounds above.
SMILES: Cc1ccc(C(=O)Nc2ccc(C(=O)N3CCCCC3C)cc2)cc1 (centres undefined)
  Calb biofilm kill: 9.0
SMILES: C=C1CCN([C@H](C(=O)NCc2ccc(OC)cc2)C(C)C)S(=O)(=O)c2ccccc21
  Calb biofilm kill: 3.2
SMILES: OCC1CCCN(C2CCN(Cc3nc(Cc4cccc(C(F)(F)F)c4)no3)CC2)C1 (centres undefined)
  Calb biofilm kill: 3.7
SMILES: O=C(NC(Cc1ccccc1)C(=O)O)/C(=C/c1ccco1)NC(=O)c1cccc(Br)c1 (centres undefined)
  Calb biofilm kill: 16.3

The results go on.
SMILES | Calb biofilm kill
Cc1ccc(N2CCN(/N=C/c3c(C)nn(-c4ccccc4)c3Cl)CC2)cc1 | -7.7
O=C(NC1CCCC1)C1c2ccccc2C(=O)N1CCCN1CCOCC1 (centres undefined) | 5.2
Cc1cc(=O)[nH]c(N/N=C/c2ccccc2C(F)(F)F)n1 | 11.1
CCC(=O)Nc1ccc(C(=O)NNC(=O)c2ccccc2)cc1 | 23.9
Cc1cc(Oc2ccc(=O)n(C)n2)nc(SCc2ccccc2)n1 | 4.8
COC(=O)NC(NC(=S)Nc1cccc(C)c1)C(Cl)(Cl)Cl (centres undefined) | 20.4
CCCOc1ccc(CSc2n[nH]c(C)n2)cc1 | 20.6
NC(=O)c1sc2cc(C(F)(F)F)cnc2c1-c1ccccc1 | 6.8
COc1ccc(/C=C/c2nc(-c3ccccc3O)n(-c3ccccc3)n2)cc1 | 19.0
COc1ccc(OC)c(-n2c(=S)[nH]c3cc(C(=O)N4CCN(c5ccccc5)CC4)ccc3c2=O)c1 | 15.6
COC(=O)[C@@]1(Cc2ccc(F)cc2)[C@H]2c3cc(C(=O)N(C)C)n(Cc4c(CO)[nH]cc(C)c4=O)c3C[C@H]2CN1C(=O)c1ccccc1 | 17.1
CCc1ccc(-c2csc(-c3c[nH]c4ccccc34)n2)cc1 | 11.8
CCC(C)NC(=O)CC(c1ccccc1)c1cc(C)ccc1O (centres undefined) | 11.4
CCCNCC1C(Oc2ccc(Cl)cc2Cl)C(=O)N1c1cccc(C)c1C (centres undefined) | 18.7
CCOC(=O)c1cc2c(=O)n3ccccc3nc2n(Cc2ccco2)c1=NC(=O)c1cccc(OC)c1 | 25.4
CC(C)CCOCC(O)CCC(=O)NNC(=S)Nc1ccccc1 (centres undefined) | 22.1
Cc1cc(NC(=O)c2ccccc2)n(-c2nc3ccccc3[nH]2)n1 | 18.4
O=C(CN1CCOCC1)NNC(=S)Nc1ccccc1 | 5.4
CC1(C)CC(C)(c2ccc(O)cc2O)N(c2ccc3ccccc3c2)C(=S)N1 (centres undefined) | 15.3
CCOc1ccc(C(=O)NC(=S)Nc2cccc(NC(=O)c3ccco3)c2)cc1[N+](=O)[O-] | 16.9

Of the compounds above, these contain an aryl thioether with sulfur outside any ring.
SMILES | Calb biofilm kill
O=C(CSc1ccc([N+](=O)[O-])cc1)Nc1cccc(S(=O)(=O)Nc2ccccc2F)c1 | 9.7
COc1ccc(Cc2c(O)nc(SCC(=O)c3ccc(OC)cc3)[nH]c2=O)cc1 | 13.1
Cc1cc(Oc2ccc(=O)n(C)n2)nc(SCc2ccccc2)n1 | 4.8
CCCOc1ccc(CSc2n[nH]c(C)n2)cc1 | 20.6

More compounds follow.
SMILES | Calb biofilm kill
CCOC(=O)N1CCN(C(=O)/C(=C/c2cccs2)NC(=O)c2cccs2)CC1 | 16.6
COc1cc(C=C2C(=O)c3ccccc3C2=O)cc(OC)c1OC | 17.9
C=CCOC(=O)C1=C(C)N=C2SCCC(=O)N2C1/C=C/c1ccccc1 (centres undefined) | 5.4
COc1cccc(/C=N/NC(=O)C(C)n2nc(C)c([N+](=O)[O-])c2C)c1O (centres undefined) | 14.3
CCOc1cccc(/C=N/N2C(=O)CSC2=S)c1O | 13.0
NC(=O)C1CCN(S(=O)(=O)Cc2ccccc2Cl)CC1 | 4.5
Cc1ccccc1CN(c1ccc(C(=O)NCc2ccccn2)cc1)S(C)(=O)=O | 12.8
Cc1nn(C)cc1/C=N/NC(=O)Cn1cncn1 | 33.3
COc1ccccc1NCC(=O)N/N=C(\C)c1ccc(Br)s1 | 13.4
COC(=O)CN1C(=O)N/C(=C/c2ccc(C)o2)C1=O | 11.8
O=C(OCCN=C1NS(=O)(=O)c2ccccc21)c1cccs1 | 18.6
O=C(Nc1ccc(F)cc1)c1nn(-c2ccccc2)c(=O)cc1Cl | 9.4
Cc1ccc(S(=O)(=O)Nc2ccnc(-c3cccnc3)n2)cc1 | 16.4
COc1ccc(-c2cc(C(=O)NCCCn3ccnc3)no2)cc1 | 9.0
CCS(=O)(=O)Nc1cc(C(=O)O)ccc1C | 15.0
O=C(O)CC1NCCc2ccccc21 (centres undefined) | 20.1
CCOC(=O)c1c(C)[nH]c(C2=NNC(=Nc3ccccc3OC)SC2)c1C | 23.5
Cc1nc(N2CCC(C)CC2)c2c(C)c(C(=O)Nc3ccc(C)c(F)c3)sc2n1 | 15.6
CCOc1ccc(Cc2onc3c2C(=O)CC(C)(C)C3)cc1OCC | 15.7
CCOC(=O)c1c(C)nc2sc3c(=O)[nH]cnc3c2c1-c1ccc(OC)cc1 | -4.0
COC(=O)C1=C(Nc2ccccc2NC(=O)CCCC(=O)O)CSC1 | 0.9
CC(C)(C)NC(=O)C(c1ccc(O)cc1)N(C(=O)CCC(=O)Nc1nccs1)c1ccccc1F (centres undefined) | 4.4
O=C(Nc1ccc(F)cc1F)c1ccccc1-c1ccccc1 | 25.4
O=C(CCn1c(=O)sc2ccccc21)NCc1cccs1 | 8.9
COC(=O)c1sc(-c2ccc(C(C)(C)C)cc2)cc1NC(=O)COCC(=O)O | 16.4
COc1ccccc1NC(=S)N(Cc1ccco1)Cc1cc2cc(C)c(C)cc2[nH]c1=O | 19.8
COc1ccc(NC(=O)CC2(CC(=O)O)CCCC2)cn1 | 4.7
COc1cc(/C=N/NC(=O)C(C)Nc2n[nH]c(=O)[nH]c2=O)cc(OC)c1O (centres undefined) | 14.6
CC(Sc1n[nH]c(N)n1)C(=O)Nc1cccc(S(=O)(=O)N2CCOCC2)c1 (centres undefined) | 11.7
CCCCN1C(=O)/C(=C/C=C2/C=Cc3ccccc3N2CC)SC1=S | 16.4
COc1ccccc1NC(=O)C/C(C)=N/NC(=O)C12CC3CC(CC(C3)C1)C2 | 15.2
CCCCC[n+]1cccc2c3ccccc3ccc21 | -14.3
O=[N+]([O-])c1ccc(N/N=C\c2cccnc2)nc1 | 3.6
Cc1ccnc(NS(=O)(=O)c2ccc(NC(=O)COc3ccccc3)cc2)n1 | 14.9
Cc1ccc(CNC(=O)Cc2ccc(-n3c(=O)[nH]c4ccsc4c3=O)cc2)cc1 | 13.4
Cc1ccccc1C(=O)N/N=C1/SCC(=O)N1Cc1ccccc1 | 18.0
Nc1cc(=O)[nH]c(N2CCN(c3ccccc3)CC2)n1 | -0.1
S=C1NCCNC(=S)NCCOCCOCCN1 | 10.4
Cn1c(=O)c2c(O)c(Cc3ccccc3)c(=O)n(C)c2n(C)c1=O | 22.7
COc1ccc(/C(C)=N/NC(=O)OC(C)(C)C)cc1[N+](=O)[O-] | 3.2
O=C(CCc1nc2ccccc2[nH]1)Nc1ccccc1F | 11.4
CC(C)Oc1cccc(C(=O)C2CCCN(Cc3cnn(C(C)C)c3)C2)c1 (centres undefined) | 13.3
COc1ccc(NC(C)C(=O)N/N=C/c2ccccc2OCc2cccc(Br)c2)cc1 (centres undefined) | 1.6
COc1ccc2c(-c3ccccc3)cc(SCC(=O)N(C)C3CCS(=O)(=O)C3)nc2c1 (centres undefined) | 14.7
O=C1CC(Sc2ncccc2C(=O)O)C(=O)N1 (centres undefined) | 6.7
CCNc1nc(NCC)n2c(SC(C(=O)Nc3cc(Cl)cc(Cl)c3)c3ccccc3)nnc2n1 (centres undefined) | 15.1
Cc1cc[n+](-c2[nH]c(=O)sc2/C=N/NC([S-])=Nc2ccccc2)cc1C | 6.7
Cc1ccccc1/C=N/n1c(-c2cc(-c3ccccc3)n[nH]2)n[nH]c1=S | 19.0
CC1=C(C)CC(C(=O)NNC(=O)c2csc(C)c2C)C(C(=O)O)C1 (centres undefined) | 13.8
CC(=O)c1ccc(-c2ccc(Cn3c(C)nc4cc(N)c(C)nc43)cc2)cc1 | 9.0
O=C(COc1ccccc1)N1CCN(C(=O)c2ccc([N+](=O)[O-])cc2)CC1 | 4.0
COc1ccc(C2(c3ccc(OC(C)=O)cc3OC(C)=O)CC(c3ccccc3)NC(=S)N2)cc1 (centres undefined) | 16.7
O=C(CSc1nnc(SCc2ccccc2Cl)s1)N/N=C/c1ccc(C(=O)O)cc1 | 22.8
COc1ccccc1/C=N/NC(=S)NCc1ccco1 | 9.4
CC1CCCCN1Cc1ccc(-c2nnn(CC(=O)NC3CCCCC3)n2)cc1 (centres undefined) | 13.6
O=C(COC(=O)c1ccccn1)Nc1ccc2c(c1)OCO2 | 2.9
Cc1nc(-c2ccc(Cl)cc2)sc1C1(C)CC(c2ccccc2F)=NO1 (centres undefined) | 14.9
Cc1nc(-c2ccncc2)nc(NCCNc2ncccc2C(F)(F)F)c1Cl | 15.0
C[C@H]1[C@H](C)CC[C@]2(C(=O)O)CC[C@]3(C)C(=CC[C@@H]4[C@@]5(C)CC[C@H](O)C(C)(C)[C@@H]5CC[C@]43C)[C@H]12 | 13.3
Cc1ccc(NC(=O)NC(=S)NC(=O)c2ccccc2)cc1 | 10.4
Other entries
SMILES | Calb biofilm kill
Cc1ccc(SCC(=O)NC(=O)Nc2ccc3c(c2)OCCO3)cc1C | 8.5
CCOC(=O)Cn1c(=NC(=O)c2ccc([N+](=O)[O-])s2)sc2ccccc21 | 13.8
Cc1c(CCOC(=O)C23CC4CC(CC(C4)C2)C3)sc[n+]1Cc1ccccc1 | 17.6
COC(C[C@H](O)C[C@@H](O)[C@@H](C)OCc1ccccc1)OC | 22.2
COc1ccc(CNC(=O)C2CCCN2CCc2ccccc2)cc1OC (centres undefined) | 12.2
COc1cc(Cl)c(C)cc1NC(=O)CSc1ccc(NC(C)=O)cc1 | 14.8
O=C(Cn1cnc2ccccc21)Nc1ccc(SC(F)F)cc1 | 6.7
CCNC(=O)CCc1nc(-c2ccc(C)cc2)no1 | 33.0
O=C(O)c1ccc(S(=O)(=O)c2ccc3c(c2)C(=O)N(NC(=O)c2ccc(O)cc2)C3=O)cc1 | 0.6
CCCCc1ccc(N=N/C(C(=O)Nc2cc(OC)c(NC(C)=O)cc2OC)=C(/C)O)cc1 | 12.0
Cc1ccc(NC(=S)c2ccc(N(C)C)cc2)cc1 | 27.6
CCN(C(=O)c1nn(-c2ccc(OC)cc2)c(=O)c2c1c1ccccc1n2C)c1ccc(OC)cc1 | 6.2
COc1cc2[nH]c(=O)n(Cc3ccc(C(=O)NC4CCN(Cc5ccccc5)CC4)cc3)c(=O)c2cc1OC | 13.3
O=C(/C=C/C(=O)NCc1cccs1)NCc1cccs1 | 24.0
CN(C)S(=O)(=O)c1cccc(NC(=O)c2cncc(Br)c2)c1 | 9.2
Cc1cccc(C)c1OCC(O)CN1CCCCC1 (centres undefined) | -0.5
CCC(=O)N=c1sc2ccccc2n1-c1ccccc1 | 1.7
O=C1/C(=C/c2ccsc2)N2CCC1CC2 | 16.3
Cc1nnc(SCc2nnc(-c3cccs3)o2)n1C1CCCCC1 | 4.6
O=C(/C=C/c1cccc2ccccc12)N1CCOCC1 | 19.0
CCCCNC(=O)Cc1c(OC)ccc2cc(Br)ccc12 | 7.6
COc1cccc(-c2nnc(-c3ccc(C(F)(F)F)cc3)o2)c1OC | 9.0
CCN1CCCC1CNC(=O)C(=O)Nc1ccccc1 (centres undefined) | 21.7
COC(=O)[C@@H]1C[C@H]1[C@@H](NS(=O)(=O)c1ccccc1)c1ccccc1 | 16.4
COc1ccc(/C(C#N)=C/c2ccccn2)cc1 | 17.3

High-throughput results as filed in PubChem BioAssay.
